GALR2 agonist – agonists of human galanin receptor 2 (GALR2); O43603; GALR2-expressing cells, agonist activation read-out; activation, %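 (tested at 5 µM)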; hit rate 0.48% among 140,000; AID 803;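 active = above mean plus 3 SD of all compounds, about 5% in these data, not always enough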;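 note: 0% = vehicle buffer wells and 100% = reference agonist at full effect; tested in CHO reporter cells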
Target sequence (O43603 whole entry, looked up): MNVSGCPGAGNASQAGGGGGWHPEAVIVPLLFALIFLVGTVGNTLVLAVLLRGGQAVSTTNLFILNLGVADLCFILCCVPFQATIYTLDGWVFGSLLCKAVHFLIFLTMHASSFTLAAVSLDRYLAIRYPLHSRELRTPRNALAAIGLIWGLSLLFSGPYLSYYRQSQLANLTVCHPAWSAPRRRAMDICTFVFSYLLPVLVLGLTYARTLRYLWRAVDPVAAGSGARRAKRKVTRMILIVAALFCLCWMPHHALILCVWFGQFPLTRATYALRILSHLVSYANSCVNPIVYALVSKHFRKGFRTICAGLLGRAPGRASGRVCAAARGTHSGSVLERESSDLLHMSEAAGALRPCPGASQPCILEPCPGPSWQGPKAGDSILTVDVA
INS promoter inh – TRM-6 insulin promoter activity inhibition. inhibition, % at 2 µM. TRM-6 cells (human fetal islet line), insulin promoter-eGFP reporter, imaging; reporter expression induced with tamoxifen. hit rate 0.9% among 130,000;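 active = inhibition above the mean plus 3 SD, with well images judged a real hit on visual review, cut at about 60% in these data, passing the limit was not always enough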
HSV replic up – HSV replication enhancement; maximum fold increase; hit rate 0.005% among 220,000; HSV replication augmentation in cells, fold increase;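 active = peak rise of 1.5-fold or more in the series; tested in PC3 cells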;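 note: first round at 10 µM; read as green reporter fluorescence; hits show the peak of a series up to 25 µM; 1 = signal of infected wells without compound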
RGS16-Gao – RGS16-Galphao interaction regulator (human); AID 1441; hit rate 0.38% among 220,000; O15492+P09471; binding response (% of control), % at 10 µM; bead-based flow cytometry RGS16-Galphao binding, fluorescence; actives lie on both sides;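 active = below 25% or above 175%, edge rows of some plates excepted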;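 note: Galphao activated by GDP with aluminum fluoride before binding; 100% = wells without compound and 0% = beads without RGS; some results beyond the cut were filed as inactive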
Target sequence (O15492 whole entry, looked up): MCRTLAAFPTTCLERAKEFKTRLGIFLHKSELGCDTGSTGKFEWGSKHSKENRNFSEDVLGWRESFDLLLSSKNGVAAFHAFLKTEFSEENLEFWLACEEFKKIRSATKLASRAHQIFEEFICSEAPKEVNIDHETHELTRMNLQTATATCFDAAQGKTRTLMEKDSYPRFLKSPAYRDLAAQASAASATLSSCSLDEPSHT
Target sequence (P09471 whole entry, looked up): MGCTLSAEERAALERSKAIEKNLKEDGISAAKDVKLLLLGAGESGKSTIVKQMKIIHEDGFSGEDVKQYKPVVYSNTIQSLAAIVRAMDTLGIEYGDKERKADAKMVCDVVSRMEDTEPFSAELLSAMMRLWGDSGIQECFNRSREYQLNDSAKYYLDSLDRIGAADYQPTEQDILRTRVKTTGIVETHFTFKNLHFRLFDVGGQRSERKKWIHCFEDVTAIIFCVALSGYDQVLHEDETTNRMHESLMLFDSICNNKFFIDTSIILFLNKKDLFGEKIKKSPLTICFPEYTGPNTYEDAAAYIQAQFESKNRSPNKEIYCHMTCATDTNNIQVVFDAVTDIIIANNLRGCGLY
PKD1 inh – PKD1 (human) kinase inhibition; Q15139; PKD1 kinase fluorescence polarization assay; inhibition, %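 (about 10 µM by stock and volumes)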; hit rate 0.056% among 200,000; AID 797;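 active = inhibition of 50% or more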;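 note: controls were vehicle for no effect and a reference inhibitor for full effect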
INS promoter inh cell count – further read-out of INS promoter inh, marked with its call; normalized cell count, %; measured here: cell count, toxicity; reference of the scale not given here;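 cells exposed to compound for 48 h; stained nuclei by imaging scaled within each plate; lower means fewer cells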
HSV replic up primary fold – also measured in HSV replic up; calls as there; fold increase; compound at 10 µM; measured here: primary screen fold increase 10 uM; tested in PC3 cells;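 GFP signal in the first replicate; 1 = infected wells without compound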
Active calls of the source: *; i = inactive; nt = not tested or not shown.

The line under a structure holds: GALR2 agonist	INS promoter inh	INS promoter inh cell count	HSV replic up	HSV replic up primary fold	RGS16-Gao	PKD1 inh
N/C(=N\OC(=O)c1ccc2c(c1)OCO2)c1ccncc1
    nt	nt	nt	i	0.94	100	nt
CCOC(=O)CSc1nc2sccc2c(=O)[nH]1
    0.6	-3	93	i	1	114	2
COc1ccc(CC(=O)NCc2nn(-c3ccccc3)nc2C)cc1OC
    nt	nt	nt	i	0.91	100	nt
CC1(C)Cc2c(sc3c2c(=O)n(-c2cccc(Cl)c2)c(=O)n3CC(N)=O)CO1
    nt	nt	nt	i	0.89	101	nt
COc1ccc(-c2n[nH]c(=S)n2C2CCCCC2)cc1
    -2.3	nt	nt	i	0.89	102	-5
CCN(C(=O)CSc1nnc(C)n1-c1ccccc1)C1CCS(=O)(=O)C1 (stereo not drawn)
    nt	45	88	i	0.95	103	-3
COc1ccc(-c2nnc3ccc(SC)nn23)cc1
    0.6	nt	nt	i	0.91	103	-8
Cc1cc(C)cc(OC(=O)CCN2C(=O)C3C4C=CC(C5CC45)C3C2=O)c1 (stereo not drawn)
    nt	nt	nt	i	1	102	-2
CCC(C)[C@@H](C(=O)Nc1ccc(OC)c(OC)c1)N1Cc2ccccc2C1=O (stereo partly drawn)
    -2.7	nt	nt	i	0.94	97	-8
CCc1c(C)nc2ccc(Br)cc2c1SCCC#N
    -0.8	nt	nt	i	0.54	91	8
NC1=NC2(CCCCC2)N(c2cccc(Cl)c2)C(N)=N1
    -1.3	-240	45	i	0.93	93	-4
COC(=O)N/N=C(\C)c1ccc2ccccc2c1OC(F)F
    0.7	11	139	i	0.9	103	-2
COc1cccc(-c2nn(C)c3sc(C(=O)NCc4ccc(C)cc4)cc23)c1
    -2.6	22	55	i	0.94	97	-6
CCN1C(=O)/C(=c2\s/c(=C3\Sc4ccccc4N3C)c(=O)n2C)N(C)C1=S
    nt	25	103	i	1	106	-2
COc1ccc(C(=O)NCc2ccccn2)cc1
    -0.2	23	166	i	0.91	103	-6
COc1cc(NC(=O)COc2ccc(-n3ccnc3)cc2)cc(OC)c1
    nt	nt	nt	i	0.99	107	5
O=C(Nc1ccc(-c2nnc3n2CCCCC3)cc1)c1cnccn1
    -1.9	3	123	nt	nt	100	-8
Cn1c(=O)c2c(ncn2CC(O)CNc2ccc(Cl)cc2)n(C)c1=O (stereo not drawn)
    -1.7	36	49	i	1.1	93	-3
CC(=O)C1=C(O)C(=O)N(CCc2ccccc2)C1c1ccccc1[N+](=O)[O-] (stereo not drawn)
    -0.9	16	137	i	0.92	110	-5
COC(=O)/C(=N/Nc1cccc(C)c1)N1CCCc2ccccc21
    -1.2	nt	nt	i	1.1	100	-13
COc1ccc2[nH]c(C)c(CCN(Cc3cccs3)C(=S)Nc3cccc(F)c3)c2c1
    -0.1	nt	nt	i	1.1	96	-2
COC(CNC(=O)c1ccc(N2CCc3ccccc32)c([N+](=O)[O-])c1)OC
    -1.8	19	42	i	0.86	104	-1
O=C(NCCCNCc1ccccc1)c1ccccn1
    0.3	11	127	i	0.81	98	-4
COc1cc(C(=O)Nc2ccc(S(=O)(=O)Nc3cc(C)nc(C)n3)cc2)cc(OC)c1OC
    nt	nt	nt	i	0.94	102	3
COc1cccc(NC(=O)C2CC(=O)N/C(=N/NC(=O)c3ccc(C)cc3)S2)c1 (stereo not drawn)
    nt	nt	nt	i	0.94	108	nt
Cc1nnc(SCC(C)C)[nH]c1=O
    -1.0	nt	nt	i	0.82	97	10
Cc1nc2nc(C)c(CCC(=O)NC(C)c3ccc4c(c3)OCCO4)c(C)n2n1 (stereo not drawn)
    -1.6	26	80	i	0.92	105	0
CCc1c(C)n2nc(C)cc2[nH]c1=O
    -1.9	nt	nt	i	0.89	102	-8
O=C(NCCC1=CCCCC1)C1CCCN(S(=O)(=O)c2cccnc2)C1 (stereo not drawn)
    -1.8	nt	nt	i	0.98	108	-7
O=S1(=O)C[C@H]2NC(=S)N(c3ccccc3)[C@H]2C1
    -1.1	nt	nt	i	1	104	-6
CCOc1ccc(CN(CCO)CCO)cc1C(=O)OC
    0.2	nt	nt	i	1	103	9
CC1CCCC(NC(=S)Nc2ccc(SC(F)F)cc2)C1C (stereo not drawn)
    -3.7	9	125	i	0.86	100	-2
O=C(CC1S/C(=N/N=C/C=C/c2ccccc2)NC1=O)Nc1ccc(C(=O)O)cc1 (stereo not drawn)
    nt	36	129	i	0.91	93	2
COC(=O)c1sc(NC(=O)c2c(F)cccc2F)c(C#N)c1C
    nt	nt	nt	i	1	99	-4
NC(=O)c1oc2ccccc2c1NC(=O)c1ccccc1
    1.2	4	125	i	0.91	98	1
Cc1ccc2nc(N3CCC(C(=O)O)CC3)nc(-c3ccccc3)c2c1
    -0.2	-9	124	i	1.1	79	0
O=c1ccc(N=Nc2ccccc2)ccc1O
    nt	nt	nt	i	0.83	110	nt
Cc1ccc(S(=O)(=O)NCC(=O)Nc2ccc(C(F)(F)F)cc2)cc1
    -2.1	-3	97	i	0.95	106	0
Cc1cccc(NC(=O)c2ccc([N+](=O)[O-])s2)c1C
    -1.8	20	114	i	0.8	98	6
O=C(CSc1oc(-c2ccco2)nc1S(=O)(=O)c1ccccc1)NCC1CCCO1 (stereo not drawn)
    -1.8	nt	nt	i	0.91	52	2
COc1ccc(OC)c(NC(=O)CSc2nnc(C3CCCCC3)o2)c1
    nt	nt	nt	i	0.88	101	-1
Cc1cc(C)cc(NC(=O)c2ccc([N+](=O)[O-])o2)c1
    nt	nt	nt	i	0.72	101	3
CCCn1c(=O)c(C(=O)NNS(=O)(=O)c2ccc(Cl)cc2)c(O)c2ccccc21
    1.8	24	105	i	0.99	117	2
Cc1cc(SCCC(=O)O)nc2c(C)cccc12
    -1.2	1	132	i	0.92	102	-2
c1ccc(-c2nccc(-c3ccco3)n2)nc1
    nt	nt	nt	i	0.92	99	2
CCCc1c(C(=O)NNc2ccccc2OC)cnn1-c1ccccc1
    nt	nt	nt	i	0.92	116	nt
O=C(NN1CCOCC1)c1cccc2ccccc12
    -0.4	nt	nt	i	0.94	104	4
CC(C)(C)OC(=O)N1CCC(C(N)=O)CC1
    -2.0	nt	nt	i	0.98	100	-12
CSC(=N/N=C(\N)c1cnccn1)SC
    -0.2	-16	123	i	0.98	94	-6
CCCOc1ccccc1N1C(=O)CC(N(O)c2ccccc2)C1=O (stereo not drawn)
    nt	-7	89	i	1	97	-7
Cc1csc(NC(=O)CSc2nnc(Cc3cccn3C)n2-c2ccc(F)cc2)n1
    -2.9	nt	nt	i	0.88	102	-8
CCOC(=O)N1CCC(NC(=O)c2cc3sccc3n2CC)CC1
    -3.1	nt	nt	i	0.94	101	-1
O=C(Nc1cccc(NC(=O)c2ccco2)c1)c1ccc2c(c1)OCCO2
    nt	nt	nt	i	1.2	102	6
COc1cc(NC(=O)c2ccco2)ccc1NC(=O)c1ccccc1Cl
    -1.6	-111	104	i	0.86	106	5
CCN(CCNC(=O)C1CCN(S(=O)(=O)c2c(C)noc2C)CC1)c1ccccc1
    nt	nt	nt	i	1.1	102	-1
COCCNC(=O)C1CC(c2ccc([N+](=O)[O-])cc2)=NO1 (stereo not drawn)
    -1.4	nt	nt	i	0.95	97	-5
O=C(Nc1ccccc1)Nc1ccc(C(=O)N2CCOCC2)cc1
    -0.7	-11	122	i	0.95	102	-6
Cc1ccc(-c2nn(CC(=O)NC(C)c3ccccc3)c(=O)c3ccccc23)cc1 (stereo not drawn)
    -1.7	37	153	i	0.9	103	4
CC(=O)c1ccc(N2CCN(C(=O)Nc3ccc(Cl)cc3)CC2)cc1
    nt	64	124	i	1.1	104	1
CCCCC1S/C(=N/N=C/c2ccco2)NC1=O (stereo not drawn)
    -0.6	48	105	i	0.99	105	-12

Structures from the list above with two or more sulfur atoms, in the order listed:
The line under a structure holds: GALR2 agonist	INS promoter inh	INS promoter inh cell count	HSV replic up	HSV replic up primary fold	RGS16-Gao	PKD1 inh
CCOC(=O)CSc1nc2sccc2c(=O)[nH]1
    0.6	-3	93	i	1	114	2
CCN(C(=O)CSc1nnc(C)n1-c1ccccc1)C1CCS(=O)(=O)C1 (stereo not drawn)
    nt	45	88	i	0.95	103	-3
CCN1C(=O)/C(=c2\s/c(=C3\Sc4ccccc4N3C)c(=O)n2C)N(C)C1=S
    nt	25	103	i	1	106	-2
COc1ccc2[nH]c(C)c(CCN(Cc3cccs3)C(=S)Nc3cccc(F)c3)c2c1
    -0.1	nt	nt	i	1.1	96	-2
O=S1(=O)C[C@H]2NC(=S)N(c3ccccc3)[C@H]2C1
    -1.1	nt	nt	i	1	104	-6
CC1CCCC(NC(=S)Nc2ccc(SC(F)F)cc2)C1C (stereo not drawn)
    -3.7	9	125	i	0.86	100	-2
O=C(CSc1oc(-c2ccco2)nc1S(=O)(=O)c1ccccc1)NCC1CCCO1 (stereo not drawn)
    -1.8	nt	nt	i	0.91	52	2
CSC(=N/N=C(\N)c1cnccn1)SC
    -0.2	-16	123	i	0.98	94	-6
Cc1csc(NC(=O)CSc2nnc(Cc3cccn3C)n2-c2ccc(F)cc2)n1
    -2.9	nt	nt	i	0.88	102	-8

Continuation:
The line under a structure holds: GALR2 agonist	INS promoter inh	INS promoter inh cell count	HSV replic up	HSV replic up primary fold	RGS16-Gao	PKD1 inh
COCCCNC(=O)CCn1c(=O)c2ccccc2n(CC(=O)NCCc2ccc(OC)c(OC)c2)c1=O
    nt	-41	110	i	1	101	-6
C=C1c2cc(C)ccc2NC(=O)N1c1ccc(C)cc1
    -0.7	-50	138	i	0.85	100	0
O=C(Nc1ccc(Cl)cc1)c1ccc(-n2cccn2)c([N+](=O)[O-])c1
    -3.3	19	142	i	0.99	99	7
CC(O)CNCCCOc1ccc(Cl)cc1C(C)(C)C (stereo not drawn)
    nt	nt	nt	i	0.6	100	0
CCN(CC)C(=O)C1CCCN(Cc2ccc(N(C)C)cc2)C1 (stereo not drawn)
    nt	nt	nt	i	0.88	102	nt
CCOc1ccc(NC(=S)N2CCN(c3ccc(N4CCOCC4)nn3)CC2)cc1
    nt	14	70	i	1	108	1
O=C1CCc2nc3sc4c(c3c(=O)n2N1)CCCC4
    -1.7	-412	74	nt	nt	nt	-7
O=C(/C=C/c1ccccc1)Nc1ccc(CN2CCOCC2)cc1
    0.2	nt	nt	i	1.1	104	3
O=C(NCc1ccc2c(c1)OCO2)C1CCCN1C(=O)Nc1ccc(F)cc1 (stereo not drawn)
    -1.7	nt	nt	i	0.96	102	7
Cc1ccc(/C=N/N2CCN(Cc3ccccc3)CC2)o1
    -2.7	43	117	i	1	64	-8
CC(=O)c1ccc(N2CCN(C(=O)CCN3C(=S)NC(C)(C)CC3C)CC2)cc1 (stereo not drawn)
    nt	nt	nt	i	1	99	-3
Cc1cc(C)c(S(=O)(=O)NCC2CCC(C(=O)NCc3ccc4c(c3)OCO4)CC2)c(C)c1 (stereo not drawn)
    -1.1	-2	106	i	0.9	97	2
COC(=O)c1c(NC(=O)c2ccoc2C)sc2c1CCC2
    -1.4	44	113	i	0.91	99	-2
Cc1c(C(=O)C(=O)NCc2cccs2)c2ccccc2n1C
    nt	nt	nt	i	1.3	103	-4
COc1cccc(/C=C2\SC(=S)N(N3C(=O)CCCC3=O)C2=O)c1
    nt	nt	nt	i	0.83	99	-5
N#CCC(=O)Nc1ccc(C(=O)NCc2cccc(Cl)c2)cc1
    nt	nt	nt	i	0.89	98	nt
Cn1cc(C2N3CC4(C)CN2CC(C)(C3)C4=O)c2ccccc21 (stereo not drawn)
    nt	nt	nt	i	0.99	102	-4
NC(=O)[C@@H]1CCCCNc2c(I)cc([N+](=O)[O-])cc2C(=O)N[C@@H](CCC(=O)O)C(=O)N[C@@H](CO)C(=O)N1
    -0.9	60*	119*	i	0.98	105	-7
COc1ccc2cc(CN(CC3CCCO3)C(=S)NCc3ccco3)c(=O)[nH]c2c1 (stereo not drawn)
    nt	nt	nt	i	0.88	98	3
CCCCCCSc1ncc(C#N)c(N)n1
    -1.7	17	91	i	1.1	106	-9
COc1ccc(/C=N\Nc2ccc([N+](=O)[O-])cc2[N+](=O)[O-])c(C(=O)O)c1OC
    nt	nt	nt	i	0.91	108	nt
Cc1cc(C)n(-c2ccc(C(=O)NCCCN3CCOCC3)cc2)n1
    nt	27	148	i	0.95	116	-8

Screening results: PubChem, several laboratories
